Screening data: PubChem BioAssay, National Center for Advancing Translational Sciences (NCATS)
Rango release inh = prevents RanGTP from dissociating the Rango-importin beta complex. 0.071% of 340,000 active. Potency, µM (top dose mostly 46.1 µM), inactives show at the top dose activity change, negative = inhibition. O95149+P62826. Biochemical FRET Rango-importin beta, RanGTP-induced dissociation; active means falling FRET ratio curve, often poorly fitted, with flat reads before Ran was added; inconclusive means other falling curves, or compound fluorescence or quenching; inactive means flat or rising ratio curve;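 also: potency is read from the fitted curve at half-maximal effect; % of control where 0% means no effect; nearly all actives have a fitted effect of over 45% in size; -100% = wells without RanGTP and RCC1; the record marks most hits as doubtful in a second field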
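Recombinant Rango FRET biosensor (EYFP–snurportin 1 IBB–cerulean CFP10) at 0.1 uM premixed with 0.25 uM importin beta in PBS, 1 mM DTT, 0.02% Tween-20, 0.1% BSA. Compound added 5 min; RanGTP-RCC1 (0.6 uM Ran, 2 mM GTP, 0.2 uM RCC1) then triggers release, read at 45 min.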
Rango-impB inh = inhibitors of Rango-importin beta complex formation; Q14974; Rango CFP/YFP FRET sensor + importin beta, 45 min; Potency, µM (series often up to 92.2 µM), inactives show at the highest dose inhibition of complex formation; 0.031% of 340,000 active; AID 540263; active = rising FRET ratio curve, often small or poorly fitted; inconclusive = mostly compound fluorescence or quenching in the first reads; inactive = flat curves in all reads;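 also: potency is read from the fitted curve at half-maximal effect; 0% = DMSO wells and 100% = buffer wells lacking importin beta; nearly all actives have a fitted effect of over 15% in size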
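FRET biosensor (snurportin 1 IBB flanked by EYFP and cerulean), 50 nM, with compound 5 min, then 0.125 microM importin beta in PBS, 1 mM DTT, 0.02% Tween-20, 0.1% BSA. CFP/YFP ratio read after 45 min at room temperature; pre-read flags interference.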
GLA inh pH 4.5 = inhibitors of human alpha-galactosidase A at pH 4.5 | P06280 | purified enzyme, 4-MU-alpha-Gal fluorescence, pH 4.5 | activity change, negative = inhibition, % at 105 µM | 230,000 tested, under 10 active | AID 1467; inconclusive = small, poorly fitted or top-dose-only inhibition, or a rising curve; inactive = flat fitted curve, though single readings scatter; no compound was filed as active;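 also: 0% = full activity with enzyme and -100% = basal without enzyme; dose as in the result columns while the protocol names 77 µM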
Target sequence (P06280 whole entry, looked up): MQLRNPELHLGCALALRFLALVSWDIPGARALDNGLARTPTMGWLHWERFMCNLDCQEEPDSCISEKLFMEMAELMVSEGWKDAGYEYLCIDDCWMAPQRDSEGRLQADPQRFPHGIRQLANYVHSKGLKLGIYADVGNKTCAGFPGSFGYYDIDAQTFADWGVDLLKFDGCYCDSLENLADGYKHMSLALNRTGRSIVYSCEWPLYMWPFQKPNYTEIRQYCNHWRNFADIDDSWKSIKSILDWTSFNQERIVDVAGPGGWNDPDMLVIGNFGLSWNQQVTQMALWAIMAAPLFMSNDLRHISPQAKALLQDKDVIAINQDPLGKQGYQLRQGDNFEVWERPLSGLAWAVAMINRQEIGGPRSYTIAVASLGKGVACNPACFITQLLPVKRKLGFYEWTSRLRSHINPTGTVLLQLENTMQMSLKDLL
miR-21 FLuc = raises the signal of a miR-21 reporter | HeLa miR-21 FLuc reporter, luciferase, 48 h | Potency, µM (top dose mostly 38.3 µM), without a hit: top-dose reporter change, positive = more light | 340,000 tested, under 10 active; active = well fitted rising curve with a large enough effect; inconclusive = small, poorly fitted or top-dose-only effect; inactive = no such curve, though single readings can be large or run the other way;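 also: % of control where 0% means no effect; miR-21 action dims this reporter so a rising signal means less miR-21 action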
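Using DMEM plus 10% FBS, HeLa miR-21-FLuc cells are incubated with test compounds (final up to about 40uM) for 48 hours; firefly luciferase signal is then imaged following reagent-mediated lysis.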
Starred values were filed as active, the others as inactive; ? = inconclusive; . = not tested or not shown; & = joins results of further samples.

smiles	miR-21 FLuc	Rango-impB inh	Rango release inh	GLA inh pH 4.5
O=C(CNC(=O)c1ccc(Cl)c([N+](=O)[O-])c1)NCC1CCCO1 (stereo not given)	1%	-2.4%	4%	.
Cc1n[nH]c(=S)n1/N=C/c1c(O)ccc2ccccc12	2%	?	?	.
CCOC(=O)CCCCC(=O)c1[nH]c(=O)[nH]c1CSCCO	-3%	0.4%	-18%	1
Cn1c(=O)cc(SCC(=O)NCCCN2CCN(c3ccccc3F)CC2)c2ccccc21	-9%	-0.5%	-10%	-7
COc1cccc(CC(=O)Nc2cc(C(F)(F)F)ccc2N2CCCC2)c1	3%	-5.7%	?	.
CC(C)N1CCN(Cc2cccc3nonc23)CC1CCO (stereo not given)	-1%	-0.5%	5%	2
Cc1cc2oc(C(=O)Nc3nonc3C)c(C)c2cc1Cl	-15%	?	-31%	.
CC(=O)/C(=N\Nc1ccc(Cl)cc1Cl)Sc1cccc2cccnc12	18%	?	1%	3
c1ccc(Cc2nc3ccccc3s2)cc1	.	0.4%	-9%	.
CCCN(CC(=O)Nc1ccccc1OC)C(=O)c1ccc(COc2ccccc2)o1	.	-6.0%	-6%	.
O=C(CCC1CCCN(C(=O)c2cc3ccccc3o2)C1)NCc1ccc(F)c(F)c1 (stereo not given)	.	0.9%	-7%	.
CCN(CC(=O)NCC(=O)Nc1cccc(C)c1C)Cc1ccccc1	-4%	-3.3%	31%	.
O=C(OC1CCOC1=O)c1ccc(S(=O)(=O)N2CCCCCC2)cc1 (stereo not given)	-6%	2.9%	-9%	0
C/C(=N\NC(=O)C1CC1c1ccccc1)c1cccs1 (stereo not given)	-13%	12%	2%	-1
COc1ccccc1CNC(=O)C1CCCN(S(=O)(=O)c2cccc3nonc23)C1 (stereo not given)	0%	-5.1%	-16%	.
CCCCNC(=O)c1ccccc1NC(=O)CCSc1ccccc1	-5%	1.0%	25%	-5
COc1ccc(C)cc1NC(=O)C1CCCN1C(=O)OCc1ccccc1 (stereo not given)	-7%	0.2%	2%	1
N#Cc1ccc(CN2CCN(C(=O)C3CC(=O)N(c4ccccc4F)C3)CC2)cc1 (stereo not given)	.	?	-3%	.
O=C(c1ccc2c3c(cccc13)CC2)C1CCCN(Cc2ccccn2)C1 (stereo not given)	3%	-3.8%	3%	2
COc1cc2c(cc1OC)CN(C(=O)CCNC(=O)c1ccccc1Cl)CC2	.	-0.2%	2%	.
CN(C)c1ncnc2c1NC1=C(S2)C(=NCCCC(=O)O)CC(C)(C)C1	-3%	?	-21%	1
Cc1cc(=O)[nH]c(N/N=C/c2c(C)nn(-c3ccc(F)cc3)c2Cl)n1	-4%	0.1%	1%	-5
Cc1nc2cc(N)ccc2n1-c1ccccc1	-7%	0.7%	7%	-1
Cc1ccc(-c2nc(C(F)(F)F)cc(=O)[nH]2)cc1	-1%	-1.2%	16%	-1
COc1ccc(C(=O)O/N=C2\CCCc3nonc32)cc1	-3%	-1.5%	-1%	4
CC(=O)NCCCNc1ccc([N+](=O)[O-])cc1	-11%	-1.5%	0%	-14
Cc1nn(CC(=O)Nc2ccc3c(c2)OCO3)c(C)c1Cl	-26%	1.3%	-16%	.
Cc1ccc(CCNC(=O)C2CCC(=O)N(Cc3ccccc3F)C2)o1 (stereo not given)	-51%	-1.2%	-11%	.
CCN(CC)CCn1c2c(c(SCC(=O)Nc3ccc4c(c3)OCCO4)nc1=O)CCCC2	.	-1.4%	-11%	.
CCOC(=O)C1CCCN(C(=O)c2ccc(NS(=O)(=O)c3ccc4[nH]c(=O)[nH]c4c3)cc2)C1 (stereo not given)	.	3.0%	-15%	.
Cc1[nH]c(C)c(S(=O)(=O)N2CCN(c3cccc(C(F)(F)F)c3)CC2)c1C(=O)N1CCCC1	6%	0.6%	12%	.
Cc1nc(N2CCOCC2)nc(N2CCCCC2C)c1[N+](=O)[O-] (stereo not given)	-17%	5.3%	-7%	-3
CCOC(=O)N1CCN(C(=O)CN(C2CCCCC2)S(=O)(=O)c2c(C)cc(C)cc2C)CC1	1%	-0.1%	-3%	?
O=C(NCCCl)C1Cc2c(ccc3ccccc23)O1 (stereo not given)	-4%	-2.2%	-6%	-4
CCOC(=O)C1=C(C)S/C(=C\N(C)C)C1=O	1%	0.4%	-4%	-8
CCOc1ccc(N2C(=O)CC(NNc3nc4ccccc4s3)C2=O)cc1 (stereo not given)	-1%	5.0%	2%	4
CCOC(=O)c1sc(=NC(=O)COc2ccccc2)n(C)c1C	-43%	2.6%	5%	-4
CCOc1cc(/C=C/C(=O)N(CC)CC(=O)NCc2cccs2)cc(Cl)c1OC	.	-1.1%	-3%	.
Cc1cc(C)cc(NC(=O)Nc2ccc3ccccc3n2)c1	-4%	2.9%	17%	-5
CN1C(=O)C(O)(CC(=O)c2ccc3c(c2)OCO3)c2ccccc21 (stereo not given)	-4%	0.3%	2%	-9

6 compounds out of the list, ordered by count of non-hydrogen atoms, largest number first.
smiles	miR-21 FLuc	Rango-impB inh	Rango release inh	GLA inh pH 4.5
Cc1[nH]c(C)c(S(=O)(=O)N2CCN(c3cccc(C(F)(F)F)c3)CC2)c1C(=O)N1CCCC1	6%	0.6%	12%	.
CCCN(CC(=O)Nc1ccccc1OC)C(=O)c1ccc(COc2ccccc2)o1	.	-6.0%	-6%	.
N#Cc1ccc(CN2CCN(C(=O)C3CC(=O)N(c4ccccc4F)C3)CC2)cc1 (stereo not given)	.	?	-3%	.
CCOc1ccc(N2C(=O)CC(NNc3nc4ccccc4s3)C2=O)cc1 (stereo not given)	-1%	5.0%	2%	4
CCOC(=O)c1sc(=NC(=O)COc2ccccc2)n(C)c1C	-43%	2.6%	5%	-4
Cc1cc(C)cc(NC(=O)Nc2ccc3ccccc3n2)c1	-4%	2.9%	17%	-5

(listing goes on)
smiles	miR-21 FLuc	Rango-impB inh	Rango release inh	GLA inh pH 4.5
CCCCOc1ccccc1C1NC(=O)NC(C)=C1C(=O)OCc1ccco1 (stereo not given)	-8%	-3.7%	3%	2
COc1cc(OC)c(NC(C)C(=O)N2CCCC2)cc1Cl (stereo not given)	3%	-4.0%	16%	-7
CCOc1ccc(S(=O)(=O)N2CCN(Cc3ccccc3)CC2)cc1	0%	-1.5%	-12%	.
CSc1ccccc1C(=O)NCc1ccc(F)cc1	-4%	-0.3%	4%	-1
CCc1cc(C(c2ccccc2OC)N2CCOCC2)c(NC(=O)c2ccccc2)s1 (stereo not given)	-16%	-1.6%	4%	-15
CC(C)c1nc(N2CCOCC2)c(C#N)c2c1CCCC2	-1%	2.0%	-22%	-10
Cc1ccc(-n2c(=S)sc3c(=O)n(-c4ccccc4F)c(SCC(=O)O)nc32)cc1C	0%	-2.1%	-4%	.
O=C(CN1C(=O)/C(=C/c2cccc(Cl)c2)SC1=S)NC1C=CS(=O)(=O)C1 (stereo not given)	-2%	-0.3%	23%	.
CC/C(=N\NC(=O)c1ccoc1C)c1ccc(C)o1	-52%	-0.8%	10%	4
O=C(Nc1ccccc1)N1CCC(C(=O)N2CCN(c3ccccc3F)CC2)CC1	-6%	1.3%	-5%	-3
CCOC(=O)c1ccc(NC(=O)CC2NCCNC2=O)cc1 (stereo not given)	-10%&-8%	-3.3%	-15%	10
O=C(CNCCC1=CCCCC1)Nc1ccc(N2CCCCCC2)cc1	0%	1.3%	-7%	1
CCOC(=O)N1CCC2(CC1)NCCc1c2[nH]c2ccccc12	-4%	-1.5%	0%	1
COC(=O)c1ccccc1NC(=O)CN1CCN(C23CC4CC(CC(C4)C2)C3)CC1	0%	-7.6%	-2%	-5
COCCCNC(=O)c1nc2c(nnn2Cc2cc(C)ccc2C)c(=O)[nH]1	-22%	2.3%	-1%	2
CC(Nc1nc(N2CCCCC2)nc2ccccc12)c1ccccc1 (stereo not given)	?	3.8%	-6%	14
COc1ccccc1NC(=O)c1ccccc1NC(=O)c1cccs1	-4%	0.5%	20%	.
O=C(CCn1cncn1)N1CCN(S(=O)(=O)c2ccc(Cl)cc2)CC1	0%	1.5%	2%	.
CCN(CC)c1ccc(S(=O)(=O)N(CC)CC)cc1NC(=O)C1CCCC1	4%	-2.1%	-8%	5
Cc1cc(C)cc(NC(=O)C2CCN(S(C)(=O)=O)CC2)c1	-6%	0.9%	-8%	.
CN(Cc1ccc(F)cc1)C(=O)CNC(=O)C1CCCCC1	-5%	0.3%	22%	.
CCn1c(COc2cccc(C)c2C)nnc1SCC(=O)Nc1cc(C)on1	-1%	0.2%	-6%	2
Cn1cc(C(=O)N/N=C/C2=C(N3CCOCC3)C(=C\c3ccccc3)/CC2)ccc1=O	-11%	?	-11%	-2
CCN(CC)c1ccc(/C=N/Nc2nn[nH]n2)cc1	-9%	5.0%	5%	-6
O=C(Nc1ccc(Cl)c(Cl)c1)OCc1cncs1	-31%	-3.3%	6%	0
COc1ccc(CCNC(=O)CSc2nnc(CNC(=O)c3ccco3)o2)cc1OC	7%	2.5%	-21%	-10
CCC(C)Sc1ccc([C@@H]2[C@@H]3C(=O)N(C)C(=O)[C@@H]3[C@]3(C(=O)OC)CCCCN23)cc1 (stereo not given in full)	.	-0.4%	13%	.
CCOC(=O)c1oc2c(C)c(O)ccc2c(=O)c1-c1nncn1-c1ccccc1	-7%	1.0%	-3%	9
C#Cc1ccc([C@@H]2C=C(C(=O)N3CCOCC3)O[C@H](OCCCCO)C2)cc1	-7%	-0.9%	-19%	2
CCOc1ccccc1OCCC(=O)Nc1ccc(F)c(Cl)c1	-2%	-0.2%	0%	-4
CCC/C(=N\NC(=O)c1ccccc1C)c1ccccc1	-37%	-0.6%	-6%	4
C=CCn1c(=S)[nH]c2cc(C(=O)N3CCN(c4ccccc4OC)CC3)ccc2c1=O	.	0.7%	?	.
CN(C)c1ccc(/C=N/NC(=O)C(=O)N2CCCCCC2)cc1	-8%	-3.1%	-1%	.
CCN1CCN(C(=O)C(=O)c2cn(CC(=O)N3CCCC3)c3ccccc23)CC1	-3%	-1.4%	3%	.
O=C(N/N=C/c1ccc([N+](=O)[O-])s1)C(O)c1ccccc1 (stereo not given)	28%	-0.6%	3%	3
N#CC1=C(SCc2ccccc2)NC(=O)CC1c1ccccc1 (stereo not given)	-9%	-0.4%	11%	-10
Cc1cc(=O)oc2cc(OCC3CC(c4ccccc4Cl)=NO3)ccc12 (stereo not given)	18%	-0.9%	-13%	-2
O=C(CNC(=O)N1CC(=O)Nc2ccccc21)Nc1ccccc1	-14%	-1.0%	?	.
COc1cccc(/C=N/n2c(C)nc3ccccc3c2=O)c1O	-2%	?	?	7
CCOC(=O)C1CCN(C(=O)c2sc3nc(-c4ccccc4)cn3c2C)CC1	-8%	-0.2%	?	-2
COc1cccc(C(=O)C2CCCN(C(=O)CCc3scnc3C)C2)c1 (stereo not given)	-6%	-2.2%	5%	-4
CCCCN(Cc1ccco1)S(=O)(=O)c1csc(C(N)=O)c1	5%	1.8%	1%	.
O=C(OCC(=O)N1CCCc2ccccc21)c1cc(S(=O)(=O)N2CCOCC2)ccc1Cl	.	-1.9%	-9%	.
Clc1ccc2nc(C3CCN(Cc4nnnn4C4CCCCC4)CC3)[nH]c2c1	20%	-4.1%	5%	-1
Cc1cc(=O)[nH]c(SCC(=O)NC2CCCCC2)n1	-2%	-3.6%	16%	.

Not all compounds are listed. The share of hits here may be higher or lower than overall.
